High-throughput results (PubChem)
Sfp PPTase inh: blocks B. subtilis Sfp PPTase activity; Q9F4F7; Biochemical Sfp PPTase activity, qHTS; Potency, µM, inactives show max response, negative = inhibition, actives largely listed as inhibitors; hit rate 3.5% among 310,000; AID 1490; active = well fitted inhibition curve with a large enough effect; inconclusive = small, poorly fitted or top-dose-only effect, or another doubt; inactive = no such curve, though single readings can be large or run the other way;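 also: the enzyme is Sfp with the accession as filed and its product quenches rhodamine fluorescence; potency is read from the fitted curve at half-maximal effect; 0% = enzyme reaction without inhibitor and -100% = no enzyme wells; top concentration of the series not given in the record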
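Fluorescence-quenching assay: 15 nM Sfp-PPTase preincubated 15 min at room temperature with compound, then 5 uM rhodamine-CoA and 12.5 uM BHQ-2-labelled YbbR peptide added. Fluorescence (ex 525/em 598 nm) read at start and after 30 min; difference gives rate.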
gsp antag: antagonists of gsp mutant (McCune-Albright syndrome); hit rate 0.4% among 340,000; gsp-mutant cells, cAMP HTRF, 30 min; control for the full effect not named in the record; Potency, µM (series often up to 76.9 µM), for inactives: at the highest dose activity change, negative = inhibition, usual class: inhibitors; active = falling curve of any shape with a large fitted effect; inconclusive = falling curve, mostly with a smaller effect; inactive = flat or rising curve; cell line not stated here;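 also: intracellular cAMP measured with PDE inhibitor Ro 20-1724 present during compound exposure; potency is read from the fitted curve at half-maximal effect; % is scaled to controls: 0 for no effect and ±100 for the full control effect; nearly all actives have a fitted effect of over 65% in size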
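HTRF cAMP read-out (cAMP-d2 plus anti-cAMP antibody-K in lysis buffer, 30 min RT). Before lysis, cells are exposed to compounds with […] for 30 min at 37C in DPBS containing Ca/Mg, BSA and Tween 20.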
D2 agonist: human D2 receptor agonism in beta-arrestin assay; P14416; DiscoveRx PathHunter D2 beta-arrestin, luminescence, 90 min; 100% = 57 uM dopamine signal; activation, % (test concentration not listed); hit rate 0.084% among 360,000; in the data active = activation above about 40%; inconclusive = about 15% to 40%; inactive = below about 15%; also: compound concentration not given in the record; the text of the record calls up to 30% inactive
Target sequence (P14416 whole entry, looked up): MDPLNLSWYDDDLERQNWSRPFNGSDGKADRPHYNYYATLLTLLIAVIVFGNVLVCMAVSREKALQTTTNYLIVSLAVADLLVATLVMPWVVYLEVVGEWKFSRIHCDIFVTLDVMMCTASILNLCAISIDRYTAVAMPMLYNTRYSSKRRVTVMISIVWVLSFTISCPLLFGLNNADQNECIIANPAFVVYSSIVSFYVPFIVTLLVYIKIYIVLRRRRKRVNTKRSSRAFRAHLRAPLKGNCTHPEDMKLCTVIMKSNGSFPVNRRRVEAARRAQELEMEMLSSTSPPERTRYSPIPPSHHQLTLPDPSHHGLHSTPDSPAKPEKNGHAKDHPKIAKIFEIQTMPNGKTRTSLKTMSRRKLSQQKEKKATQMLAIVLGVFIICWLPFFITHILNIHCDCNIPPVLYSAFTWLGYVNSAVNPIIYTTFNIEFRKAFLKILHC
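DiscoveRx PathHunter D2 beta-arrestin cells (2,100/well) attached overnight, then compound-stimulated 90 min at 37 C in HBSS/10 mM HEPES/0.1% Tween-20 buffer; beta-galactosidase complementation read by luminescence after 1 h at ambient temperature. Dopamine 57 uM final (EC100) as control.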
PINK1 modulator: modulators of PINK1 expression | PINK1 immunofluorescence, high-content cytometry, 24 h | Potency, µM (titrated, usually from 76.6 µM), inactives show at the highest dose activation (PINK1 increase), hits mostly activators | hit rate 0.2% among 410,000; active = well fitted activation curve with a large enough effect; inconclusive = small, poorly fitted or top-dose-only effect; inactive = flat fitted curve, though single readings scatter; cell line not stated here;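 also: potency is read from the fitted curve at half-maximal effect; % of control where 0% means no effect; nearly all actives have a fitted effect of over 65% in size; a mitochondrial uncoupler was the plate control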
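Stable cell line treated 24 h with compounds at 5 concentrations (CCCP controls), then fixed and immunostained for PINK1 plus nuclear and cell stains; PINK1 immunofluorescence quantified by laser-scanning microplate cytometry.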
Menin-MLL FL inh: displaces fluorescein MLL peptide from human menin; Fluorescence polarization, fluorescein-MLL peptide displacement from menin; FP activity change, % at 61.4 µM; 290,000 tested, under 10 active; inconclusive = falling polarisation curve, or a change in total fluorescence; inactive = total fluorescence flat and polarisation flat or rising; no compound was filed as active; the % refers to the polarisation; negative = inhibition;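 also: % of control where 0% means no effect; inhibitors lower the polarisation; unlabelled MLL peptide was the positive control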
gsp ag: agonists of gsp mutant (McCune-Albright syndrome); gsp mutant cells, cAMP HTRF, 30 min; control for the full effect not named in the record; Potency, µM (titrated, usually from 76.9 µM), without a hit: at the top dose activation (cAMP increase), usual class: activators; hit rate 0.13% among 340,000; AID 624287; active = well fitted activation curve with a large enough effect; inconclusive = small, poorly fitted or top-dose-only effect, or another doubt; inactive = no such curve, though single readings can be large or run the other way; cell line not stated here;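 also: phosphodiesterase inhibitor Ro 20-1724 added with compounds to block cAMP breakdown; potency is read from the fitted curve at half-maximal effect; nearly all actives have a fitted effect of over 60% in size; about a fifth of the inactives were tested at one dose only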
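Cells in DMEM/10% FBS with G418 were pretreated with compounds in DMSO plus […] (300 uM stock) for 30 min at 37C. cAMP was measured by HTRF (cAMP-d2 plus anti-cAMP antibody-K) after 30 min at room temperature.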
ClpP mod: qHTS Assay for Activators of ClpP | ATP-dependent Clp protease proteolytic subunit (Bacillus subtilis (strain 168)), P80244 | purified B. subtilis ClpP, FRET peptide cleavage, 20 min | Potency, µM (doses to about 57.5 µM), inactives show at the top dose activity change, negative = active | hit rate 1.9% among 340,000 | AID 651965, 2013; active = well fitted falling curve with a large enough effect; inconclusive = small, poorly fitted or top-dose-only effect; inactive = no such curve, though single readings can be large or run the other way; also: potency is read from the fitted curve at half-maximal effect; the source files actives as falling curves though it sought activators and does not explain the sign; nearly all actives have a fitted effect of over 65% in size; many hits overshoot -100%
Target sequence (P80244 whole entry, looked up): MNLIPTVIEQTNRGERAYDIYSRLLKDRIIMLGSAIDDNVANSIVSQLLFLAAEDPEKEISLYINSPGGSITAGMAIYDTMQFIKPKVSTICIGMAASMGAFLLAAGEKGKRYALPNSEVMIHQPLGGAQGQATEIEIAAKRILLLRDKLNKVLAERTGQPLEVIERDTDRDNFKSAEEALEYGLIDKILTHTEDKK
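FRET quenching reversal measured ClpP activation: 10 microg/mL B. subtilis ClpP at pH 8 with the FRET-FV decapeptide, read at 430 nm after 320 nm excitation. The 20-min minus 0-min signal was scaled between DMSO/no-enzyme wells and ADEP (5.8 microM final).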
The depositor's hits bear a star; ? = inconclusive; nt = no result given; [ ] = dose if it differs, or a comment.

entry	Compound	Sfp PPTase inh	gsp antag	D2 agonist	PINK1 modulator	Menin-MLL FL inh	gsp ag	ClpP mod
1	O=C(CN1c2ccccc2Sc2ccccc21)NNC(=S)Nc1ccc(Cl)cc1Cl	11%	-18%	-6.4	?	3.6	-16%	-3.9%
2	NC(=O)CSc1nnc(-c2ccc(S(=O)(=O)N3CCCC3)cc2)n1Cc1ccco1	?	9%	-0.5	5.2%[38.3 µM]	-1.1	-3%	-3.6%
3	O=[N+]([O-])c1ccc(/C=N/NC(=S)Nc2ccccc2C(F)(F)F)o1	-27%	7%	0.6	0.0%	5.3	11%	-1.9%
4	Nc1nc(Nc2ccc(Cl)cc2)nc(NCc2ccco2)c1[N+](=O)[O-]	-29%	15%	-5.8	1.1%	6.0	-2%[15.4 µM]	nt
5	CCCS(=O)(=O)NC(=O)C1(C)CCCN(C(=O)Cc2ccc3ccccc3c2)C1 (configuration not stated)	nt	nt	1.5	1.1%	nt	nt	1.7%
6	C[C@H](CO)N1C[C@H](C)[C@@H](CN(C)C(=O)Nc2ccc3c(c2)OCO3)Oc2c(NC(=O)C3CCCCC3)cccc2C1=O	nt	-2%	-2.3	0.4%	nt	-21%	0.6%
7	O=C(Cc1cccs1)NCc1ccncc1	-7%	5%	-4.9	1.4%	6.1	?	-1.3%
8	O=C(CCCN1C(=O)NC2(CCCC2)C1=O)NCc1ccccc1	nt	10%	-2.6	-0.9%	nt	19%	-4.3%
9	COc1ccc(-c2cc(-c3ccccc3)nc(NN)n2)cc1OC	-1%	-2%	-16	0.4%	-3.3	-31%[inhibitor]	nt
10	CC1(C(=O)NCc2cccnc2)CCN1C(=O)c1cccc(F)c1 (configuration not stated)	nt	nt	-2.6	0.0%	nt	nt	1.3%
11	CC(C)CN(C(=O)CCCc1nc2ccccc2c(=O)[nH]1)c1c(N)n(Cc2ccccc2)c(=O)[nH]c1=O	nt	10%	-3.3	0.0%	nt	10%	-5.4%
12	CCOC(=O)C(C)c1ccc2cc(OC)ccc2c1 (configuration not stated)	-7%	-9%	-2.3	0.1%	-0.7	-2%	-0.2%
13	Cc1noc(C)c1NC(=O)Nc1ccc2c(c1)C(=O)N([C@H](C)CO)C[C@H](C)[C@@H](CN(C)C(=O)Nc1c(C)noc1C)O2	nt	22%	-3.9	0.0%	nt	-20%	-1.2%
14	Cc1cc(C(=O)COC(=O)CNS(=O)(=O)c2ccc3ccccc3c2)c(C)n1-c1ccccc1	-18%	6%	-1.2	-0.2%	7.7	-9%	-9.5%
15	COc1cc(C(=S)N2CCOCC2)ccc1OC(=O)c1ccc(Br)cc1	-3%	?	5.4	0.8%	-0.3	?	-0.4%

Other compounds follow.
entry	Compound	Sfp PPTase inh	gsp antag	D2 agonist	PINK1 modulator	Menin-MLL FL inh	gsp ag	ClpP mod
16	COc1ccc(CCC(C)NCC(C)c2ccccc2)cc1 (configuration not stated)	2%	-8%	-2.2	4.4%	-0.3	-2%[15.4 µM]	0.4%
17	COc1cccc(OC)c1OCCCOc1c(OC)cccc1OC	21%	-23%	-1.6	-1.1%	0.7	74%	0.0%
18	Cc1ccccc1NC(=S)N(C)CCc1ccccn1	17%	-5%	4.5	1.4%	-2.6	8%[15.4 µM]	-2.7%
19	O=C(C1=C[C@H](c2ccc3c(c2)OCO3)C[C@H](OCCCCO)O1)N1CCOCC1	9%	1%	0.4	1.7%	3.1	nt	-1.3%
20	Nc1cnc(Br)cc1Br	-9%	9%	-2.1	0.7%	0.7	-47%[inhibitor]	-3.5%
21	CCOC(=O)c1nnn2c1nc(Nc1cccc(C(F)(F)F)c1)c1ccccc12	-9%	8%	1.5	6.6%	2.8	-19%[15.4 µM]	nt
22	COc1ccc(CNC(=O)C[C@H]2C[C@H](C(=O)N3CCCCC3)[C@@]3(CCc4ccccc4)c4[nH]c5ccc(Cl)cc5c4CCN3C2=O)cc1OC	nt	-13%	1.5	5.3%	nt	nt	-0.1%
23	Cc1cc(C(=O)CCC(=O)NCc2ccccc2F)c(C)s1	nt	0%	-0.6	-0.6%	nt	-14%[15.4 µM]	nt
24	CC(=O)c1ccc(S(=O)(=O)N2CCN(CC(=O)Nc3ccccc3C(=O)NC3CC3)CC2)cc1	nt	-9%	4.0	1.9%	nt	10%	-0.3%
25	COc1cccc(-n2c(SCC(N)=O)nnc2-c2c[nH]c3ccccc23)c1	4%	-5%	3.3	0.8%	0.6	4%	-1.3%
26	Cn1c(-c2ccccc2)cnc1NCc1ccc(-c2ccccc2)cc1	-39%	21%	0.3	?	-1.2	-7%	-3.6%
27	CCCC(=O)OCCNc1cc(SCCC(=O)OC)c2nonc2c1[N+](=O)[O-]	?	-16%	-4.5	-1.2%	0.7	6%	0.5%
28	Cc1cc(NC(=O)Cc2ccccc2)c2ccccc2n1	12%	-19%	10	-0.3%	-1.6	-42%[inhibitor]	0.7%
29	CC[C@H](C)[C@@H](C(=O)NCCCCCCCCCCC(=O)N1CCNCC1)n1cc(CCCCN=C(N)N)nn1	nt	7%	-0.7	0.3%	nt	nt	-0.8%
30	Cc1cc(S(=O)(=O)N2CCN(Cc3ccc4c(c3)OCO4)CC2)cc(C)c1N1CCCC1=O	6%	-18%	-0.7	1.0%	1.3	-4%	1.7%

Other entries:
entry	Compound	Sfp PPTase inh	gsp antag	D2 agonist	PINK1 modulator	Menin-MLL FL inh	gsp ag	ClpP mod
31	COC(=O)CSc1nc(N)c(NC(=O)c2ccc(OC)c(OC)c2)c(=O)[nH]1	-1%	5%	-5.5	3.5%	0.8	14%	0.7%
32	Cc1cccc(C(=O)OCC(=O)c2ccc3c(c2)OCCO3)c1O	nt	?	0.6	5.1%	nt	-25%	33%
33	CC(=O)Nc1cccc(-c2cc(NC(C)=O)c3ncc(-c4ccc(F)cc4)n3c2)c1	nt	nt	6.7	0.4%	nt	nt	4.5%
34	CCOc1ccc(C(=O)NCC(=O)N2CCC(C)CC2)cc1OCC	20%	-16%	-1.1	1.0%	-1.0	31%[15.4 µM]	-1.0%
35	COC(=O)c1[nH]c2ccc(F)cc2c1NC(=O)CCN1CC(C)OC(C)C1 (configuration not stated)	9%	8%	-2.5	-1.0%	0.0	1%	16µM*
36	COC(=O)c1ccccc1NC(=O)CN1CCCCCC1	6%	3%	-2.8	1.1%	4.8	-7%	-3.2%
37	O=C(Nc1ccc(Cl)c(Cl)c1)Nc1ccccc1NS(=O)(=O)c1cccs1	13%	-2%	-1.3	8.0%	2.5	-8%[15.4 µM]	nt
38	COC(=O)[C@]1(Cc2ccccc2)N[C@H](c2ccc(-c3ccc(F)cc3)cc2)[C@@H]2C(=O)N(C)C(=O)[C@@H]21	nt	-16%	0.1	2.1%	nt	nt	-15%
39	CCN(CC)c1ccc(C(=O)O)cc1	0%	2%	-5.0	0.3%	7.9	-37%[inhibitor]	-2.5%
40	CN(CC(=O)Nc1cccc(F)c1)CC(=O)Nc1cc(S(=O)(=O)N2CCOCC2)ccc1Cl	nt	?	-2.7	1.8%	nt	0%	-1.8%
41	N#Cc1ccccc1OCCOCCNC1CCCC1	6%	7%	-2.9	1.6%	4.4	2%	nt
42	OC(c1ccc(F)c(F)c1)c1nc(-c2cccc3cccnc23)cs1 (configuration not stated)	nt	nt	-3.5	6.4%	nt	nt	-22%
43	CC(C)C(=O)NC(=S)Nc1ccc(S(=O)(=O)Nc2nccs2)cc1	0%	-8%	1.4	1.7%	-2.2	12%[15.4 µM]	nt
44	O=C(CN1CCN(c2ccccn2)CC1)Nc1cccc(Br)c1	-9%	10%	7.0	2.5%	-17	6%	nt
45	COc1ccc(CCN(C)C/C=C/c2ccccc2[N+](=O)[O-])cc1OC	-10%	-3%	-4.1	-0.3%	-3.8	-18%	0.4%
46	CC(C)[C@H](NC(=O)c1ccccc1F)C(=O)Nc1ccc(F)c(F)c1	15%	-1%	0.6	4.9%	-16	5%[15.4 µM]	-1.1%
47	CN(C)C(=O)c1ccc(-c2nc(Nc3ccncc3)c3ccccc3n2)cc1	?	nt	nt	1.1%	1.7	nt	nt

Reformatted field by field: part of the list above
41	N#Cc1ccccc1OCCOCCNC1CCCC1
  Sfp PPTase inh = 6%	gsp antag = 7%	D2 agonist = -2.9	PINK1 modulator = 1.6%	Menin-MLL FL inh = 4.4	gsp ag = 2%	ClpP mod = nt

34	CCOc1ccc(C(=O)NCC(=O)N2CCC(C)CC2)cc1OCC
  Sfp PPTase inh = 20%	gsp antag = -16%	D2 agonist = -1.1	PINK1 modulator = 1.0%	Menin-MLL FL inh = -1.0	gsp ag = 31%[15.4 µM]	ClpP mod = -1.0%

47	CN(C)C(=O)c1ccc(-c2nc(Nc3ccncc3)c3ccccc3n2)cc1
  Sfp PPTase inh = ?	gsp antag = nt	D2 agonist = nt	PINK1 modulator = 1.1%	Menin-MLL FL inh = 1.7	gsp ag = nt	ClpP mod = nt

3 records drawn at random from those above:
entry	Compound	Sfp PPTase inh	gsp antag	D2 agonist	PINK1 modulator	Menin-MLL FL inh	gsp ag	ClpP mod
42	OC(c1ccc(F)c(F)c1)c1nc(-c2cccc3cccnc23)cs1 (configuration not stated)	nt	nt	-3.5	6.4%	nt	nt	-22%
40	CN(CC(=O)Nc1cccc(F)c1)CC(=O)Nc1cc(S(=O)(=O)N2CCOCC2)ccc1Cl	nt	?	-2.7	1.8%	nt	0%	-1.8%
32	Cc1cccc(C(=O)OCC(=O)c2ccc3c(c2)OCCO3)c1O	nt	?	0.6	5.1%	nt	-25%	33%
